Screening data: PubChem BioAssay, ICCB-Longwood Screening Facility, Harvard Medical School
MgrA DNA FP – S. aureus MgrA activity modulators, primary screen, biochemical, S. aureus Newman, fluorescence polarization; MgrA-DNA binding; inhibition, %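 (about 10 µg/mL by stock and volumes)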; 0.13% of 84,000 active; AID 602314, 2012;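 active means above 50% in either of two replicates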;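 further: 0% = protein plus DNA without compound and 100% = DNA alone without protein; higher means less MgrA bound to DNA so lower polarization; one replicate is shown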
Sa helicase inh – inhibitors of S. aureus replicative helicase, primary screen, biochemical, fluorescence unwinding readout | replicative DNA helicase (DnaC/DnaB), Staphylococcus aureus | purified S. aureus helicase, fluorescence unwinding assay; about half of the hits fall short of the stated cut | inhibition, %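 (tested at about 80 µM)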 | 0.05% of 120,000 active | AID 485395, 2010;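 active means both duplicates at 50% or more, or one of them with a favoured structure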;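 further: 0% = mean of negative control wells and 100% = mean of positive control wells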
* hit, by the source's call; nt = no result given; & = joins results of further samples. Not all compounds are listed; count on the stated rates, not on these rows.

entry	structure	MgrA DNA FP	Sa helicase inh
1	COc1ccccc1N1CCN(C2Sc3ccccc3NC2=O)CC1 (stereo not drawn)	nt	-3
2	O=C(COC(=O)C1CCC(=O)N1)Nc1nc(-c2ccccc2)cs1 (stereo not drawn)	nt	-9
3	COC(=O)C1=C(N)N(c2cccc(C(F)(F)F)c2)C2=C(C(=O)CCC2)C1c1ccccc1 (stereo not drawn)	-1.0	4
4	COc1ccc(-c2csc(=Nc3ccccc3)n2CCCN(C)C)cc1	1.1	7
5	O=S(=O)(c1ccccc1)n1ccc2cccnc21	1.4	nt
6	Cc1ccc(C(=O)c2coc3ccc(O)c(CN4CCN(C)CC4)c23)cc1	nt	-1
7	CC(N)c1nc(-c2ccccc2Cl)no1 (stereo not drawn)	-4.9	-2
8	Cc1ccc2nsnc2c1S(=O)(=O)NC1CC1	-0.2	3
9	O=C(NC1CCN(Cc2ccccc2Cl)CC1)c1ccccc1	-3.4	nt
10	COc1ccc(C)cc1S(=O)(=O)N1CCN(c2ccccc2)CC1	nt	-16
11	O=C1N=C(N2CCN(c3ccccc3)CC2)SC1Cc1ccccc1 (stereo not drawn)	nt	7
12	N[C@H]1CONC1=O	0.0	nt
13	CCOC(=O)c1c(C)sc2c3c([nH]c12)CCCC3	2.3	0
14	N#Cc1cccc2c1NC(c1cccc(Cl)c1Cl)C1CC=CC21 (stereo not drawn)	-2.3	nt
15	CCOc1ccc([C@@H]2[C@H](C(=O)O)c3ccccc3C(=O)N2Cc2ccccc2)c(O)c1	nt	6
16	C=CCn1c(=O)/c(=C/c2sccc2C)s/c1=C(/C#N)C(=O)NCc1ccco1	nt	-59
17	NC(CO)CSCc1ccccc1 (stereo not drawn)	nt	20
18	CC1CCCC(C)N1C(=O)COC(=O)c1ccccc1I (stereo not drawn)	1.1	-9
19	COc1cc2c(cc1OC)C(c1ccccc1)N(C(=O)COC(=O)C1=NNC(=O)CC1)CC2 (stereo not drawn)	nt	-10
20	Cn1c(=O)c2c(n3nnnc13)-c1ccccc1CC21CCCC1	3.6	5
21	Cc1ccc2[nH]c(=O)c(-c3noc(C(C)C)n3)cc2c1	nt	8
22	C/C(Cl)=C\Cn1c(SCC(N)=O)nc2c1c(=O)[nH]c(=O)n2C	2.2	nt
23	Cc1ccc(-c2csc3nc(C)n(-n4cccc4)c(=O)c23)o1	-1.1	27
24	COc1ccc(C(=O)c2c(C)c3ccccc3n2CC(O)CNC(C)C)cc1 (stereo not drawn)	nt	-13
25	Cc1ccc(C2C(C#N)=C(N)SC(N)=C2C#N)c(C)c1	20	-208
26	CN(CC(=O)Nc1ccccc1Br)c1ncnc2sccc12	nt	-7
27	O=C(NNC(=S)NC1CC2C=CC1C2)c1ccncc1 (stereo not drawn)	4.4	nt
28	COc1ccc(Nc2ssc(=O)c2Cl)cc1OC	nt	-130
29	COC(=O)C1=C(O)c2ccccc2S(=O)(=O)N1	-0.4	-3
30	Clc1ccc(C2Nc3ccccc3-c3nc4ccccc4n32)cc1 (stereo not drawn)	2.0	nt
31	CCN(CC)CCn1c(OC)cc(=O)[nH]c1=O	nt	3
32	O=C(c1ccc(F)cc1F)C1CCN(S(=O)(=O)c2ccc(F)cc2F)CC1	0.3	nt
33	Nc1ccccc1SCC(O)COc1cccc(C(F)(F)F)n1 (stereo not drawn)	-3.0	nt
34	CCC(C)NS(=O)(=O)c1ccc(C)cc1C (stereo not drawn)	nt	-6
35	CN(CC(=O)Nc1ccc(N2CCOCC2)cc1)CC(=O)Nc1ccc2c(c1)OCO2	nt	12
36	COCCn1c(COc2cccc(OC)c2)nnc1SCC(=O)NC1CCCC1	0.5	9

Exported field by field: part of the list above
30	Clc1ccc(C2Nc3ccccc3-c3nc4ccccc4n32)cc1 (stereo not drawn)
  MgrA DNA FP = 2.0	Sa helicase inh = nt
28	COc1ccc(Nc2ssc(=O)c2Cl)cc1OC
  MgrA DNA FP = nt	Sa helicase inh = -130
29	COC(=O)C1=C(O)c2ccccc2S(=O)(=O)N1
  MgrA DNA FP = -0.4	Sa helicase inh = -3
32	O=C(c1ccc(F)cc1F)C1CCN(S(=O)(=O)c2ccc(F)cc2F)CC1
  MgrA DNA FP = 0.3	Sa helicase inh = nt

The list continues:
entry	structure	MgrA DNA FP	Sa helicase inh
37	Cc1ccc(CCNC(=O)c2cc3c(=O)[nH]c4ccc(C)cc4c3s2)cc1	-1.1	9
38	CC1(C)CC(=O)N(CC(=O)Nc2ccc3c(c2)OCCO3)c2ccccc2S1(=O)=O	nt	-8
39	Cc1c(C(=O)O)oc2c1C(=O)CCC2	-1.6	12
40	O=C(Oc1c(Br)cc(C(F)(F)F)cc1[N+](=O)[O-])c1ccccc1Cl	-1.0	nt
41	CCN(Cc1nc2ccccc2c(=O)[nH]1)C(=O)Nc1ccc(Cl)cc1	nt	-3
42	O=C(NCCc1ccc(Cl)cc1)C12CC3CC(CC(C3)C1)C2	-1.8	2
43	Cc1ccc2c(c1)nnn2C1CCN(C(=O)c2ccccc2)CC1	-3.3	20
44	Cc1nonc1CC(=O)O	nt	-26
45	C#CCOc1ccc(/C=C(/C#N)c2ccc(C(=O)O)cc2)cc1OC	2.2	21
46	Nn1c(SCc2cc(=O)n3cc(Br)ccc3n2)nnc1C1CCCCC1	nt	-5
47	CCCn1c(N)c(C(=O)CSc2ccc3c(c2)OCCO3)c(=O)[nH]c1=O	nt	12
48	OC1(c2ccccc2)CCOCC1	-0.7	nt
49	C=CCOc1ccc(C2Nc3ccccc3-c3nnc(SCCC)nc3O2)cc1 (stereo not drawn)	-0.5	nt
50	O=C(O)c1cccc(-c2ccc(/C=C3\Sc4ccccc4C3=O)o2)c1	nt	-89
51	O=C(Nc1ccc2nc(NC(=O)c3ccc(Br)cc3)sc2c1)c1ccc(Br)cc1	-0.9	nt
52	COC(=O)c1cc(NC(=O)c2oc(=O)c3ccccc3c2-c2ccc(C)cc2)cc(C(=O)OC)c1	nt	-7
53	Cc1ccccc1-c1nnc(CN2CCCC2)o1	-0.4	-1
54	CSc1sc(-c2[nH]ncc2Br)c2c1C(=O)CC(C)(C)C2	-0.1	nt
55	Cc1cc(=O)oc2cc(NC(=O)c3ccc4c(c3)S(=O)(=O)N=C3CCCCCN34)ccc12	nt	-7
56	O=C(Nc1c2c(nn1-c1cccc(Cl)c1)CS(=O)C2)C1CCCC1 (stereo not drawn)	nt	35
57	CCOc1ccc(S(=O)(=O)NC(C)C)cc1	-0.3	8
58	O=C(c1ccc(S(=O)(=O)N2CCCC2)cc1)N1CCc2ccccc21	nt	-22
59	O=[N+]([O-])c1ccc(N2CCN(S(=O)(=O)c3ccc(Cl)cc3)CC2)nc1	-3.3	nt
60	O=C(Nc1ccccc1)Nc1ccc(S(=O)(=O)Nc2ccc(F)cc2)cc1	-2.0	19
61	CN1C(=O)C(C)(C)c2cc(S(=O)(=O)N(C)Cc3ccccc3)ccc21	nt	-3
62	O=c1c(=O)n(Cc2cccc(F)c2)ccn1Cc1ccccc1	nt	13
63	CC(=O)Oc1ccc2c3c(c(=O)oc2c1)CCC3	-0.1	-12
64	CCn1c(C(=O)NCCc2ccccc2)cc2oc3ccccc3c21	1.2	-11
65	O=S(=O)(c1ccccc1)C1CC1(Cl)Cl (stereo not drawn)	-4.0	nt
66	Cc1ccccc1Cn1cc(CCCC(=O)O)c2ccccc21	3.2	2
67	NC(=O)C1CC12c1ccccc1-c1ccccc12 (stereo not drawn)	nt	2
68	COc1cccc(CNS(=O)(=O)c2ccc3[nH]c(=O)ccc3c2)c1	-0.1	5
69	CCc1nc2ccccc2n1Cc1cccc(S(=O)(=O)N2CCOCC2)c1	nt	-6
70	CC(=O)NC1CC2CCC(C1)N2Cc1ccc(C)cc1 (stereo not drawn)	-1.8	5
71	O=C(Nc1ccc(S(=O)C(F)(F)F)cc1)c1ccccn1 (stereo not drawn)	nt	0
72	O=C1NC(=O)C(Cc2ccccc2)N1 (stereo not drawn)	0.7	nt

Rewritten with two lines to a compound: four of the compounds above
Results follow in this order: MgrA DNA FP | Sa helicase inh
#19 COc1cc2c(cc1OC)C(c1ccccc1)N(C(=O)COC(=O)C1=NNC(=O)CC1)CC2 (stereo not drawn)
→ nt | -10
#20 Cn1c(=O)c2c(n3nnnc13)-c1ccccc1CC21CCCC1
→ 3.6 | 5
#21 Cc1ccc2[nH]c(=O)c(-c3noc(C(C)C)n3)cc2c1
→ nt | 8
#22 C/C(Cl)=C\Cn1c(SCC(N)=O)nc2c1c(=O)[nH]c(=O)n2C
→ 2.2 | nt

Other results:
entry	structure	MgrA DNA FP	Sa helicase inh
73	CCN(CC)CC#CC1(O)CCCCC1	5.3	16
74	O=c1[nH]ccc2c(OCc3ccccn3)cccc12	nt	9
75	O=C1C=C(Nc2ccccc2)C(=O)c2ccccc21	nt	19
76	O=C(CSC1CC(=O)N(c2ccccc2)C1=O)Nc1ccccc1 (stereo not drawn)	nt	3
77	O=C(Nc1ccccc1C(=O)Nc1nccs1)c1ccccc1	-0.6	nt
78	CN(Cc1nc(-c2ccccc2)no1)C(=O)c1ccccc1	0.1	4
79	CCc1nnc(SCc2ccccc2)c2cc3occc3n12	5.4	12
80	CC12CC(NC(=O)N1Cc1ccccc1)c1ccccc1O2 (stereo not drawn)	3.2	15
81	CN(CCOc1ccc(Cl)cc1)c1nn(C)c(=O)n(C)c1=O	nt	3
82	C(=Nc1cccnc1)c1ccccc1	-2.9	-17
83	Cc1ccc(SCc2nc3ncccn3c2Br)cc1	nt	-12
84	CCOC(=O)c1ccc2nc(C(F)(F)F)nc(N3CCCCC3)c2c1	1.1	14
85	Clc1cccc(CNc2ccc3nnc(-c4ccccc4)n3n2)c1	0.6	14
86	CSc1nc2c(cc1C#N)CCCCC2	-1.9	-5
87	Cc1cccc(OCc2nc(-c3ccccc3)no2)c1	1.6	12
88	COc1ccc(-c2noc(CSc3nc4ccc(C)cc4[nH]3)n2)c(OC)c1	nt	-22
89	Cc1nsc(N)c1C(=O)OCc1c(F)cccc1Cl	nt	29
90	O=C1SC(=S)N/C1=C/c1cccc(O)c1	2.6	-16
91	CC1CN(C2=NC(=O)/C(=C/c3ccccc3)S2)CC(C)O1 (stereo not drawn)	-1.5	14
92	CCOc1ccccc1N/C=C/C(=O)C(C)(C)C	6.0	12
93	O=c1[nH]c2ccc(Cl)cc2c(-c2ccccc2)c1CN1CCCCC1	0.7	11
94	CN(C)c1sc(C(=O)c2ccccc2)cc1-c1ccccc1	-1.6	nt
95	CCCCCNc1nc(C(C)C)c2c(c1C#N)CC(C)(C)OC2	nt	-18
96	O=C(Cc1ccccc1)NC1(C(=O)Nc2cccc(Cl)c2)CCCCC1	-1.0	14
97	CN(CC(=O)Nc1ccc(N2CCOCC2)cc1)Cc1cc(=O)n2ccsc2n1	nt	0
98	Cc1cc(N2CCN(C)CC2)ccc1NC(=O)CNC(=O)C12CC3CC(CC(C3)C1)C2	nt	3
99	O=C1c2ccccc2-c2onc3ccc(N4CCOCC4)c1c23	15	24
100	O=C(CSc1ccccn1)NC1CCCC1	nt	-15
101	Cc1cc(=O)[nH]c(N2CCc3ccccc3C2)n1	nt	-6
102	CNC(=O)c1cccc(Oc2ccccc2)c1	0.6	6
103	CC1CN(C(=O)c2ccccc2)OC(c2ccc3c(c2)OCO3)O1 (stereo not drawn)	-0.4	-15
104	CC(=O)N(CC(O)CN(C(C)=O)c1c(I)c(C(=O)NCC(O)CO)c(I)c(C(=O)NCC(O)CO)c1I)c1c(I)c(C(=O)NCC(O)CO)c(I)c(C(=O)NCC(O)CO)c1I (stereo not drawn)	-1.3	nt
105	O=C1c2ccc(F)cc2C(=O)N1CCO	nt	12
106	Nc1c(-c2nnnn2-c2ccccc2)cnc2ccccc12	nt	-37
107	CCOC(=O)C1=C(C)N=c2s/c(=C\c3cc(Br)c(O)c(OC)c3)c(=O)n2C1c1ccccc1 (stereo not drawn)	-2.8	nt
108	COc1ccc(C(C(=O)NC2CCCC2)N(Cc2ccco2)C(=O)c2ccco2)cc1 (stereo not drawn)	-2.0	5
109	CC(C)(C)NC(=O)NC(=O)CN1CCC(Cc2ccccc2)CC1	nt	5
110	Cc1oc2cc(OCC#N)ccc2c(=O)c1-c1ccc2c(c1)OCCCO2	nt	-1
111	Cc1nnc(C)n1/N=C/C=C/c1ccccc1	-0.7	16
112	Cc1ccc(C2=NC(CC(C)C)NC(c3ccccc3O)C2)cc1 (stereo not drawn)	-1.9	13
113	Nc1ccc(Oc2ccc(Cl)cc2Cl)nc1	2.1	nt
114	CC(=O)NCCn1c(SCc2cc(F)ccc2F)nc2ccccc2c1=O	nt	-5
115	Oc1c(Br)cc(CN2CCOCC2)c2cccnc12	nt	15
116	O=c1c2ccccc2n2c(-c3ccsc3)nnc2n1CCc1ccccc1	nt	-18
117	COCCn1c(SCC(=O)c2ccccc2)nnc1-c1ccccc1	1.1	8
118	CCOC(=O)N1CCc2c(sc3c2c(=O)n(Cc2ccccc2)c(=O)n3CC(=O)Nc2cccc(OC)c2)C1	nt	0
119	O=C(Cn1cc2c(n1)CCCC2)Nc1ccc(Cl)cc1	nt	7
120	C1CN(c2nc3nonc3nc2N2CCOCC2)CCO1	nt	36
121	N#Cc1cnn2c(C(F)(F)F)cc(C(F)(F)F)nc12	-1.5	nt
122	Cc1ccc(NS(=O)(=O)c2cccc(C(=O)NC(C)(C)C)c2)c(C)c1	-0.6	-12
123	Cc1cccc2cc(CN(Cc3ccco3)C(=O)N3CCOCC3)c(Cl)nc12	0.6	3
124	Cn1cc(CCC(=O)O)c2ccccc21	-6.0	1
125	O=c1c2ccccc2c(/C=N/c2ccccn2)c(O)n1-c1ccccc1	0.6	-8&16
126	c1ccc(Cn2cc3c(-c4ccccc4)nnc-3c3ccccc32)cc1	1.2	-6
127	O=C(CS(=O)(=O)c1ccccc1)NCc1ccccc1	-2.7	0
128	CN(C(=O)NC(=O)Nc1ccc(C=C(C#N)C#N)cc1)S(C)(=O)=O	nt	12
